Bioassay records: PubChem, National Center for Advancing Translational Sciences (NCATS)
TRPML1 blocker: qHTS for Inhibitors of the Human Mucolipin Transient Receptor Potential 1 (TRPML1). TRPML1-inducible cells, Ca2+ dye fluorescence, FDSS; stronger effect = lower value; inhibition of EC80 agonist-evoked calcium signal. activity change, negative = inhibition, % (concentration not given with the values). hit rate 0.02% among 390,000. AID 624415, 2012; in the data active means activity change below about -50%; inconclusive means about -30% to -50%; inactive means above about -30%;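 note: stimulus is agonist 54-4 at its EC80 concentration; % is set by controls: 0 for no effect and ±100 for the full control effect; compound concentration not given in the record; the text of the record puts the active cut at -80%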
Target sequence (Q9GZU1 whole entry, looked up): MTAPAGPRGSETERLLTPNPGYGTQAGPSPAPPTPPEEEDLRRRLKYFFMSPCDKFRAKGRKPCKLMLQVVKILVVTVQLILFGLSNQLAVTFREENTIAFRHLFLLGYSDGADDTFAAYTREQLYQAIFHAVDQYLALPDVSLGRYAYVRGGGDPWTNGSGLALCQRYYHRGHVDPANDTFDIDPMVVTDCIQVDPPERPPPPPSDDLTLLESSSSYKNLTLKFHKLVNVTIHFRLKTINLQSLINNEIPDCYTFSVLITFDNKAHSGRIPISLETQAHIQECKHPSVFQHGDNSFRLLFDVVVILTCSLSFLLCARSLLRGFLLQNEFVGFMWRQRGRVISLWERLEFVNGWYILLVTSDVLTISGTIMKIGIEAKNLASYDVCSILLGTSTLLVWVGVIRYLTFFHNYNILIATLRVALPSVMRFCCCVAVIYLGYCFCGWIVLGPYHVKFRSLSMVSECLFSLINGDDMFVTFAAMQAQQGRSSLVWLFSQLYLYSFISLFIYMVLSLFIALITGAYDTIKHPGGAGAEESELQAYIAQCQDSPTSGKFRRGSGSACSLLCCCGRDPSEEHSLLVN
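TRPML1-DL cells, Tet-induced overnight (~16 h, 37 °C) at 1,500 cells/well, were loaded with Ca8 no-wash dye plus quencher for 45-90 min at room temperature. Compounds were pinned during FDSS kinetic reading; agonist 54-4 at EC80 (4 uM final) then added.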
TRPML1 agonist: qHTS for Agonists of the Human Mucolipin Transient Receptor Potential 1 (TRPML1). Mucolipin-1 (Homo sapiens), Q9GZU1. TRPML1-expressing cells, Ca2+ dye fluorescence, FDSS; host cell line not named in the record; reference of the full effect not given here. activation, % (concentration not given with the values). hit rate 0.12% among 410,000. AID 624414, 2012; in the data active = activation above about 50%; inconclusive = about 30% to 50%; inactive = below about 30%; note: 0% is about no effect; the text of the record puts the active cut at 80%
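In this qHTS format, compounds were pin-transferred onto Ca8-dye-loaded TRPML1-DL cells induced with Tet overnight, and intracellular Ca2+ fluorescence was recorded kinetically for 110 s after a 10 s baseline. A subsequent 4uM final 54-4 (EC80) addition followed by a second 110 s read served as the antagonist phase.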
* marks the source's active call; other numbers are inactive results; ? = inconclusive. Not all compounds are listed; rates above refer to the full screens.

Order of values – TRPML1 blocker, TRPML1 agonist
1: Cc1ccc2nc(Cl)c3cc(C(=O)NC4CCCCCC4)sc3c2c1
  -12.1, 1.0
2: N#Cc1ccc(-c2cccs2)nc1SCc1c(F)cccc1Cl
  8.1, 0.3
3: CCn1cc(C(=O)N2CCN(c3cccc(C)c3C)CC2)c2cc(OC)c(OC)cc2c1=O
  6.0, 0.8
4: COc1ccc(-c2nn3c(-c4ccccc4C)nnc3c3ccccc23)cc1
  68.2, 2.8
5: Cc1ccc(-c2nc3ccccc3o2)cc1NC(=O)c1cccc2c(Cl)cccc12
  19.1, -0.4
6: COc1ccc(C2C3C=CCC(c4ccccc4)C3C(=O)N2Cc2ccccc2)cc1Cl (stereo not given)
  56.4, 1.5
7: Cc1ccc2c(c1)C(=O)C(=O)N2Cc1ccc(OCCC(C)C)cc1
  -9.7, 0.6
8: COc1cccc(NC(=O)Cn2c(=O)n(-c3ccc(CC(=O)NCC4CCCO4)cc3)c(=O)c3ccccc32)c1 (stereo not given)
  18.9, -0.5
9: COCCCNC(=O)C1CCN(C(=O)c2ccc(-n3ccc4ccccc43)s2)CC1
  33.6, -0.5
10: COc1ccccc1Cc1nc2ccccc2nc1SCC(=O)NCc1ccc(F)cc1
  14.9, 0.0
11: Cc1cc(C)cc(-n2ccn(CC(=O)Nc3cc(C)ccc3C)c(=O)c2=O)c1
  5.4, -0.3
12: Cc1ccccc1CN1C(=O)c2ccccc2S(=O)c2ccc(C(=O)N3CCOCC3)cc21 (stereo not given)
  -3.4, -0.3
13: C=Cc1ccc(Cn2c(C(=O)O)c(CNCc3cccs3)c3ccc(C)cc32)cc1
  40.3, 5.3
14: CCOc1ccc(NC(=O)Cn2c(=O)c(CNc3ccc(OC)cc3)cc3ccc(OC)cc32)cc1
  53.5, 3.0
15: COc1ccc(CNc2oc(/C=C/c3cc(OC)c(OC)c(OC)c3)nc2C#N)cc1
  2.0, 15.6
16: COc1cc(-c2noc(-c3ccc(NCC4CCCO4)c([N+](=O)[O-])c3)n2)cc(OC)c1OC (stereo not given)
  -6.7, -0.3
17: CCCCOC(=O)c1ccc(NC(=O)Cn2nnc3sc4c(c3c2=O)CCCC4)cc1
  18.5, 1.3
18: CCOC(=O)N1CCc2c(sc(NCc3ccc(N(C)C)cc3)c2C(=O)Nc2ccc(OC)cc2)C1
  -10.5, -0.4
19: COc1cccc(NC(=O)C2CCN(c3cc(C)nc4c(-c5ccc(Cl)cc5)c(C)nn34)CC2)c1
  4.5, 0.7
20: CCOC(=O)C1CCC(CN(Cc2ccccc2)S(=O)(=O)c2ccc(Br)cc2)CC1 (stereo not given)
  -7.2, 1.2
21: CCOc1ccc(Sc2cc(C(=O)NCCc3ccccc3)c3ccccc3n2)cc1
  -17.4, 0.1
22: Cc1nc(-c2ccc(S(=O)(=O)NCc3ccc(F)cc3)cc2)co1
  -15.2, 1.6
23: CCc1ccc(-n2nc(C)c3c(C)cc(=O)n(CC(=O)N(CC)Cc4ccccc4)c32)cc1
  -0.2, -0.3
24: CC(C)Cc1cc(C(=O)NCc2ccc(Cl)cc2)no1
  -2.1, -0.2
25: Cc1ccc2c(=O)cc(CSc3ncn[nH]3)[nH]c2c1C
  11.4, 3.7
26: Cc1c(Cl)cccc1NC(=O)Nc1nnc(N(C)Cc2ccccc2)s1
  -14.8, 58.3*
27: CCOc1ccccc1NC(=O)C1=C(C)Nc2ncnn2C1c1sccc1C (stereo not given)
  -2.9, 3.5
28: CCN1CCN(CCCNC(=O)c2ccc3nc(Cc4ccccc4)oc3c2)CC1
  13.6, -0.3
29: COc1ccc(S(=O)(=O)N2CCC(N3CCN(Cc4ccc(F)cc4)C(=O)C3=O)CC2)cc1
  5.7, 0.2
30: CCc1ccc(NS(=O)(=O)c2ccc(NC(=O)N3CCCC3)cc2)cc1
  -9.0, 0.3
31: Cc1ccc(NC(=O)COc2ccc3oc4c(c3c2)CCCC4)c(C)c1
  12.6, 0.1
32: COc1ccccc1CNC(=O)Cn1c(=O)oc2cc(S(=O)(=O)NCc3ccccc3)ccc21
  16.7, -0.2
33: COc1cccc(CNC(=O)c2ccc(-c3nc(CS(=O)(=O)c4ccccc4)c(C)o3)cc2)c1
  36.4, -0.1
34: N#Cc1ccccc1Cn1c(=O)n(CCCC(=O)NCc2ccccc2Cl)c(=O)c2ccccc21
  -23.8, 1.0
35: Cc1ccc(-c2nn3c(=O)cc(CN4CCN(C(=O)/C=C/c5ccccc5)CC4)nc3s2)cc1
  -5.5, 0.2
36: COc1ccc(CCNC(=O)Cc2ccc(NC(=O)N3CCSc4ncccc43)cc2)cc1OC
  -12.6, 0.0
37: COc1cccc(CNCc2c(C(=O)O)c(C)n(Cc3ccc(F)cc3Cl)c2C)c1OC
  3.6, -0.4
38: Cc1ccc(Cl)cc1N1CCN(c2ncnc3onc(C)c23)CC1
  21.2, 0.6
39: COc1ccc(CCNC(=O)c2cc3c(=O)n(C)c4cc(Cl)ccc4c3s2)cc1OC
  -2.6, 0.9
40: CCOc1ccccc1NC(=O)N1CCN(Cc2nc3ccc(C)cc3o2)CC1
  -3.1, -1.3
41: CCC(C(=O)Nc1nnc2n1CCS2)c1ccccc1 (stereo not given)
  29.1, 0.1
42: Cc1cccc(-n2nnc(-c3nc(-c4ccccc4)no3)c2N)c1C
  -7.5, 1.3
43: COc1cc(-c2oc3cc(O)cc(O)c3c(=O)c2O)ccc1O
  -4.0, 1.2
44: CCCc1cnc2c(c1SCC(=O)Nc1c(C)cc(C)cc1C)c(=O)n(C)c(=O)n2C
  65.0, -0.1
45: O=C(CSc1nnc(NC(=O)NC2CCCCC2)s1)Nc1ccccc1F
  27.4, 2.5
46: CCc1ccc(NC(=O)c2cc3ccccn3n2)cc1
  14.1, -1.4
47: CCOc1ccccc1CNC(=O)CCc1cn(Cc2ccc(Cl)cc2)c2ccccc12
  50.0, -0.2
48: CC(C)(C)OC(=O)N1CCC(c2c(C(=O)NCCc3ccccc3)cnn2-c2ccc(F)cc2)CC1
  -3.3, 0.9
49: COc1ccc(N(CC(=O)Nc2cccc(Cl)c2)S(=O)(=O)c2c(C)[nH]c(=O)[nH]c2=O)cc1
  13.7, 0.8
50: Cc1ccccc1CCNC(=O)c1ccc2c(c1)c(C)c(C)n2Cc1ccccc1
  15.3, 2.7

(cont.)
Order of values – TRPML1 blocker, TRPML1 agonist
51: O=C(Nc1ccc2c(c1)CCCN2C(=O)c1cccs1)c1cccc(C(F)(F)F)c1
  4.2, 1.4
52: O=C(CSc1nc(-c2ccccc2)c2ccccc2n1)Nc1ccc(F)cc1
  0.2, -0.2
53: O=C(Nc1ccc2oc(-c3ccc4ccccc4c3)nc2c1)c1cc(Cl)ccc1Cl
  27.4, 1.2
54: Cn1cc(S(=O)(=O)c2cccc(Cl)c2)c(=O)c2cc(F)c(N3CCCCCC3)cc21
  22.2, 2.7
55: COc1cccc(C(=O)Nc2ccc(S(=O)(=O)N(Cc3ccccc3)c3ccccc3)cc2)c1
  -1.0, 0.1
56: Cc1cccc(C(=O)Nc2ccc3nc(SCCOc4ccccc4)sc3c2)c1
  -3.3, -0.4
57: Cc1ccc(CN2CCc3nc(N4CCN(C)CC4)ncc3C2)s1
  ?, 2.3
58: COc1ccc(-c2nc3scc(CCNS(=O)(=O)c4ccc(Oc5ccccc5)cc4)n3n2)cc1
  27.0, 3.0
59: COc1ccc(N(C(=O)c2cccc(C)c2)S(=O)(=O)c2ccc3c(c2)n(C)c(=O)n3C)cc1
  33.6, 0.1
60: Cc1ccccc1Nc1cc(C(=O)NC2CCCCC2)c2ccccc2n1
  -13.3, 1.3
61: Cc1nc2nc(CNC(=O)OC(C)(C)C)nn2c(C)c1CCC(=O)NCc1ccccc1Cl
  10.7, 1.0
62: C=C[C@@H]1[C@@H](C)[C@H](C)C(=O)C([C@H](O)C(C)C)[C@@H]1C (stereo not given in full)
  -0.2, 0.4
63: COC(=O)c1ccccc1NC(=O)CCCS(=O)(=O)c1nc(-c2ccccc2OC)cc(C(F)(F)F)n1
  34.3, -0.7
64: Cc1cccc(OCc2nnc(SCC(=O)Nc3ccc(C)cc3C)o2)c1
  -7.6, 0.5
65: O=C(COc1ccc(Cl)cc1Cl)Nc1cccc2cccnc12
  11.9, -0.2
66: Cc1ccc(C2CC(=O)N(Cc3ccccc3F)c3c2c(C)nn3-c2nc(C)cc(C)n2)cc1 (stereo not given)
  40.0, -0.5
67: Cc1cccc(N2CCN(S(=O)(=O)c3c(C(=O)N4CCC(C)CC4)c(C)n(C)c3C)CC2)c1C
  4.8, ?
68: CC1CCN(S(=O)(=O)N2CCC(C(=O)NCc3ccccc3Cl)CC2)CC1
  -15.2, -0.5
69: CCOc1ccc(C(=O)Nc2cc(-c3nc4ccccc4o3)ccc2C)cc1Cl
  -1.1, 0.4
70: COc1ccc(CCNC(=O)CCCCn2c(=O)c3ccccc3n(CC(=O)Nc3ccccc3C)c2=O)cc1OC
  -2.0, -0.2
71: CCOC(=O)Cn1c(=O)cc(C(F)(F)C(F)(F)F)c2c(C)nn(CC)c21
  1.2, -0.8
72: O=C(CN1C(=O)CC(c2ccc(F)cc2)=Nc2ccccc21)NCc1ccccc1Cl
  1.6, -0.6
73: Cc1ccc(C(C)C)c(OC(C)C(=O)NCC2(N(C)C)CCCCC2)c1 (stereo not given)
  34.4, 2.5
74: Cc1c(C(=O)Nc2cccc(-c3nc4ccccc4s3)c2)oc2ccc(F)cc12
  5.5, -0.8
75: Cc1cccc(-c2nc3scc(CCNS(=O)(=O)c4c(C)noc4C)n3n2)c1
  28.6, 0.9
76: CC(C)c1ccc(NC(=O)C2CCCN(S(=O)(=O)c3cccc4cccnc34)C2)cc1 (stereo not given)
  -19.7, 1.1
77: Cc1cccc(Cn2c(SCc3ccc(C(=O)NC4CCCC4)cc3)nc3cccnc32)c1
  -12.4, 1.2
78: Cn1c2ccccc2c2cnn(CC(=O)N3CCN(c4cccc(C(F)(F)F)c4)CC3)c(=O)c21
  8.5, 3.8
79: O=C1CC(c2ccccc2)Cc2[nH]c(=O)c(C(=O)Nc3ccc(OC(F)(F)F)cc3)cc21 (stereo not given)
  -3.3, 0.3
80: CCn1c(C)c(C)c2cc(C(=O)NCCc3cc(OC)ccc3OC)ccc21
  -1.2, 3.0

Full records as entered above. Screens in order: TRPML1 blocker | TRPML1 agonist
Cc1cccc(-c2nc3scc(CCNS(=O)(=O)c4c(C)noc4C)n3n2)c1 across the screens: 28.6 | 0.9
CCOC(=O)Cn1c(=O)cc(C(F)(F)C(F)(F)F)c2c(C)nn(CC)c21 across the screens: 1.2 | -0.8

(listing goes on)
Order of values – TRPML1 blocker, TRPML1 agonist
81: Cc1ccc2c(c1)-c1onc(C(=O)N3CCN(c4ccc(Cl)cc4)CC3)c1CO2
  8.5, 2.8
82: Cc1ccc2c(c1)c(=O)c(S(=O)(=O)c1ccc(F)cc1)cn2CC(=O)Nc1ccc2c(c1)OCO2
  -4.8, -0.4
83: COC(=O)c1n[nH]n(-c2ccccc2)c1=O
  25.3, 1.3
84: Cc1ccc(OCC(=O)N(Cc2sccc2C)C2CCS(=O)(=O)C2)cc1 (stereo not given)
  2.8, 0.4
85: CCc1ccc(CNC(=O)CSc2cc(=O)n(CC)c3ccccc23)cc1
  9.5, 1.1
86: COc1ccc(NC(=O)Cn2cc(C(=O)c3ccccc3)c(=O)c3cc(OC)ccc32)c(OC)c1
  -2.5, -0.5
87: O=C(Nc1cc(F)ccc1F)C1CCN(C(=O)c2cnn(-c3ccccc3)c2-n2cccc2)CC1
  -0.9, -0.6
88: CCN1CCN(c2oc(/C=C/c3ccc(OC)c(OC)c3)nc2C#N)CC1
  -1.8, 0.0
89: CCC1(C)Cc2c(sc3nc(SC)n(-c4ccc(C)cc4)c(=O)c23)CO1 (stereo not given)
  46.2, 0.2
90: CCOC(=O)c1ccc(NC(=O)CN2C(=O)c3cccnc3Oc3ccc(Cl)cc32)cc1
  4.3, 4.2
91: COc1ccc(NC(=O)c2ccco2)cc1NC(=O)c1ccc(C)c(C)c1
  3.6, 0.5
92: Cc1ccc(Sc2c(C)nn(C(=O)COc3ccccc3)c2C)cc1
  -0.8, 1.0
93: CCOc1ccc(NC(=O)CSc2ccc(-c3sc(-c4ccccc4)nc3C)nn2)cc1
  17.1, 1.0
94: CCOc1ccc(-n2c(/C=C/c3cccc(F)c3)nc3cc(OC)c(OC)cc3c2=O)cc1
  7.2, 3.7
95: COc1ccc(CNC(=O)C(C)n2c(=O)cc(C)c3c(C)nn(-c4ccccc4)c32)cc1 (stereo not given)
  3.5, 1.1
96: COc1ccc(-n2c(=O)c3ccccc3n(Cc3ccccc3Cl)c2=O)cc1
  12.0, -0.1
97: CC(C)c1ccc(NS(=O)(=O)c2ccc3nc(-c4ccccc4)[nH]c3c2)cc1
  -1.1, 0.8
98: Cc1cc(C)c(Cn2c3ccccc3c3cnn(CC(=O)NCc4ccc(Cl)cc4)c(=O)c32)c(C)c1
  5.0, -0.6
99: CCOC(=O)c1c(-c2ccc(Br)cc2)csc1NC(=O)c1ccccc1F
  2.0, -0.4
100: CCOC(=O)c1ccc(NC(=O)C2CC(=O)N(c3ccc(C(C)C)cc3)C2)cc1 (stereo not given)
  -2.4, 0.2
101: COC(=O)c1c(-c2cccs2)csc1NC(=O)c1ccc(OC)c(OC)c1
  -3.0, 0.3
102: COc1ccc(CCNC(=O)CCCn2c(=O)c3ccccc3n(Cc3c(C)cc(C)cc3C)c2=O)cc1OC
  -9.1, 0.5
